# Resorufin fluor – qHTS Assay for Spectroscopic Profiling in Resorufin Spectral Region; Compound fluorescence, resorufin region 547/598 nm, buffer; active compounds read high; max dye-equivalent concentration, M; 59,000 compounds, 0.04% hits; AID 588, 2007; active = above 10 nM dye equivalent; inconclusive = 1 to 10 nM; inactive = 1 nM or less; a few of its hits are not listed in these tables; further: highest value over a series up to 38 µM
#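 Read-out: intrinsic compound fluorescence at ex 547/em 598 nm after 15 min at RT in pH 8.0 Tris (100 mM). Values expressed as resorufin-equivalent concentration from per-plate standard series.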
# AID923 – qHTS Assay for Allosteric/Competitive Inhibitors of Caspase-1: Spectroscopic Profiling in AFC Spectral Region | compound fluorescence, AFC spectral region (405/520 nm); almost no hit is shown here | Potency, µM (titrated, usually from 57.5 µM), for inactives: at the top dose fluorescence increase, hits mostly activators | 75,000 compounds, 1.1% hits; active means well fitted activation curve with a large enough effect; inconclusive means small, poorly fitted or top-dose-only effect;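 further: potency means the concentration at half of the fitted maximal effect; 0% is about no effect; scaled to a free AFC standard on each plate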
#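 Baseline compound fluorescence (AFC region, 405 nm ex/520 nm em) taken from the intercept of kinetic reads with 50 nM caspase-1 and 5 uM Ac-WEHD-AFC; normalized to an on-plate AFC standard curve; compounds titrated up to 57 uM.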
# A488 fluor – qHTS Assay for Spectroscopic Profiling in A488 Spectral Region | compound autofluorescence, A488 spectral region, dye equivalency; active compounds read high | max dye equivalency, M | 59,000 compounds, 0.1% hits | AID 591, 2007; active = above 10 nM dye equivalent; inconclusive = 1 to 10 nM; inactive = 1 nM or less; about half of its hits are not listed in these tables;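 further: highest value over a series up to 38 µM; compound alone in buffer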
#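 Read-out: relative fluorescence at 480/540 nm, expressed as Alexa 488 dye-equivalent concentration from a six-point A488 standard included per plate. Conditions: 100 mM Tris, pH 8.0; 15 min incubation, room temperature.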
# A647 fluor – qHTS Assay for Spectroscopic Profiling in A647 Spectral Region; Compound fluorescence, A647 channel (570/671 nm), Tris buffer; max dye-equivalent concentration, M; 59,000 tested, under 10 active; active means above 1 µM dye equivalent; inconclusive means 0.1 to 1 µM; inactive means 0.1 µM or less;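 further: values scaled relative to a standard on each plate; highest value over a series up to 38 µM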
#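 Tris 100 mM pH 8.0; cpd + A647 stds pin-transferred; 15 min RT; CCD imager, ex 570/em 671. Output = A647-equivalent conc. per cpd conc.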
# TSHR ag – qHTS Assay for Agonists of the Thyroid Stimulating Hormone Receptor. HEK293-CNG-TSHR cells (CNG channel as cAMP sensor), membrane potential dye, cAMP. Potency, µM (titrated, usually from 57.1 µM), for the others: top-dose activation, hits mostly activators. 73,000 compounds, 0.48% hits. AID 926, 2007; active = well fitted activation curve of enough size with the parental cells flat; inconclusive = any curve in the parental cells; inactive = parental cells flat and receptor cells flat or falling; further: potency means the concentration at half of the fitted maximal effect; % of control where 0% means no effect; weak receptor curves with flat parental cells got no call and are not listed
# Target sequence (P16473 whole entry, looked up): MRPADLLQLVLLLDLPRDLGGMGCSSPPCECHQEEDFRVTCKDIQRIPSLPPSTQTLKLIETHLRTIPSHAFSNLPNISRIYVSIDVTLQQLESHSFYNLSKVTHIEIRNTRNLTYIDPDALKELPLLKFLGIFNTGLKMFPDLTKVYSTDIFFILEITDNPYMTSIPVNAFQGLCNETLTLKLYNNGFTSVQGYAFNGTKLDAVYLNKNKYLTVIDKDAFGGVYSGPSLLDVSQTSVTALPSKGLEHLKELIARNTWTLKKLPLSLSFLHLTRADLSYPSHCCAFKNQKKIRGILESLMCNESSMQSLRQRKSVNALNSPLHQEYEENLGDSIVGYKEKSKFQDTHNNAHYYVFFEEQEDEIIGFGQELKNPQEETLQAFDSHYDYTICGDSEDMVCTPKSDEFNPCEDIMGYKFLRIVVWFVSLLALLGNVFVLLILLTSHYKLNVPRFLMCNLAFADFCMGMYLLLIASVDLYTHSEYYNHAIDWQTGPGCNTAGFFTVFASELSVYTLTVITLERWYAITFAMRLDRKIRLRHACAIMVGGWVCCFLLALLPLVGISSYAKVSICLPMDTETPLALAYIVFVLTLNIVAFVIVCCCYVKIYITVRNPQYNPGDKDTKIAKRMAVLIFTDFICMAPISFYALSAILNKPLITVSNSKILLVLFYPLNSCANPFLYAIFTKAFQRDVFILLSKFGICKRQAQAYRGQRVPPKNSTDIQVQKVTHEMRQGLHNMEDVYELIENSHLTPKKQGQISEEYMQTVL
#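 cAMP rise detected as CNG-channel membrane depolarization by fluorescent dye (emission 590 nm), 30 min after compound, following 60 min dye loading containing 100 uM RO 20-1724 at room temperature. Cells: TSHR/CNG HEK 293, with parental CNG HEK 293 as control.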
# * = called active by the depositor; i = inactive; ? = inconclusive; / = no result given; [ ] = remark or other dose.
SMILES,Resorufin fluor,AID923,A488 fluor,A647 fluor,TSHR ag
CC(C)c1ccc(NS(=O)(=O)c2cn(C)c(=O)n(C)c2=O)cc1,/,-2.7%,/,/,-1%
Cc1cnc(CNc2ccnc(-c3ccoc3)n2)cn1,i,3.8%,i,1e-09,2%
CSc1nnnc2ccccc12,i,9.7%[11.5 µM],i,1.5e-09,-5%[11.4 µM]
O=C(C1CCCCC1)N1CCC(c2nc3ccccc3[nH]2)CC1,i,-1.0%,i,1e-09,-2%
Cc1nn(C)cc1CNC(=O)C1C2CCC(O2)C1C(=O)O (stereo not drawn),i,2.1%,i,1e-09,/
O=C(NCc1ccccc1)N1CCn2c(nc3ccccc32)C1,i,-0.2%,i,1e-09,-21%
CCC(=O)N[C@@H]1Cc2ccccc2[C@@H](c2ccccc2)C1,/,-2.2%,/,/,?
CCOc1ccc(C(=O)Nc2ccc(S(=O)(=O)N3CCOCC3)cc2)cc1OCC,i,0.4%,i,6.6e-09,/
CN(C)/C=N/c1sc2c(c1C#N)CCC2,i,0.6%,i,1e-09,-3%
COC(=O)N1CCC2(CC1)CN(c1ccccc1)C2,i,1.3%,i,1.9e-09,-2%
COC(=O)C(C)Sc1nnc(Cc2cc(=O)[nH]c(=O)[nH]2)n1-c1cccc(OC)c1 (stereo not drawn),/,2.1%,/,/,-2%
CN(C)Cc1c(O)ccc2occ(C(=O)c3ccccc3)c12,i,2.0%,i,1e-09,?
COc1cc([C@H]2[C@@H]3CCCC[C@]3(O)CCN2Cc2ccccc2F)ccc1O,i,1.4%,i,1e-09,23%
O=c1c2c(n3nnnc3n1Cc1ccccc1)-c1ccccc1CC21CCCC1,i,-0.2%,i,2.2e-08,3%
CC(=O)c1ccccc1OCCCN1CCCCC1,i,-1.4%,i,5.3e-09,5%

# Sorted by the number under A647 fluor (low to high): three of the compounds above.
SMILES	A647 fluor
COc1cc([C@H]2[C@@H]3CCCC[C@]3(O)CCN2Cc2ccccc2F)ccc1O	1e-09
COC(=O)N1CCC2(CC1)CN(c1ccccc1)C2	1.9e-09
CC(=O)c1ccccc1OCCCN1CCCCC1	5.3e-09

# Some of these compounds in order of length of the SMILES, smallest number first:
SMILES,Resorufin fluor,AID923,A488 fluor,A647 fluor,TSHR ag
CC(=O)c1ccccc1OCCCN1CCCCC1,i,-1.4%,i,5.3e-09,5%
Cc1cnc(CNc2ccnc(-c3ccoc3)n2)cn1,i,3.8%,i,1e-09,2%
CN(C)Cc1c(O)ccc2occ(C(=O)c3ccccc3)c12,i,2.0%,i,1e-09,?
CC(C)c1ccc(NS(=O)(=O)c2cn(C)c(=O)n(C)c2=O)cc1,/,-2.7%,/,/,-1%
CCOc1ccc(C(=O)Nc2ccc(S(=O)(=O)N3CCOCC3)cc2)cc1OCC,i,0.4%,i,6.6e-09,/

# Additional records:
SMILES,Resorufin fluor,AID923,A488 fluor,A647 fluor,TSHR ag
Cc1[nH]c(=O)[nH]c(=O)c1S(=O)(=O)N1CCN(c2cccc(Cl)c2)CC1,i,0.7%,i,1.4e-08,-5%[11.4 µM]
CCOC(=O)c1ccc(N2C(=O)C3C(C2=O)C(C(=O)c2ccc(Cl)cc2)N2CCCC32)cc1 (stereo not drawn),i,7.8%,?,5.7e-09,19%
CCN(CC)C(=O)C(C)OC(=O)COc1ccc(Cl)cc1C (stereo not drawn),i,-1.8%,i,2.2e-09,27%
Cc1cc(C)cc(Nc2ncc3c(n2)CCCC3=O)c1,i,0.1%,i,1.9e-08,?
CC(=Nc1cccc(O)c1)c1sc2ccccc2c1O,i,/,i,1e-09,/
COc1ccc(C(=O)NC2=C(C#N)CCC2)cc1OC,i,1.1%,i,3.1e-09,4%
O=C(c1ccco1)N(CC1CCCO1)c1nc(-c2ccccc2)cs1 (stereo not drawn),i,6.5%,i,3.7e-09,?
Cn1cnc(S(=O)(=O)N2CCc3ccccc32)c1,i,-0.2%,i,7.9e-09,?
NS(=O)(=O)c1cc(C(=O)O)cc(N2CCCC2)c1Oc1ccccc1,i,-0.8%[25.7 µM],i,1e-09,11%[25.6 µM]
Cc1ccc(SCCNS(C)(=O)=O)cc1,i,0.0%,i,1e-09,10%
O=C1C2CCCN2C(c2cccc(F)c2)N1c1cccc(Cl)c1 (stereo not drawn),/,-1.2%,/,/,?
Cc1nc2sc3c(c2c(=O)o1)CCCC3,i,-0.1%,i,2.5e-09,1%[11.4 µM]
CS(=O)(=O)N1Cc2ccccc2CC1C(=O)Nc1ccccc1C(N)=O (stereo not drawn),i,-0.2%,i,3e-08,-4%
CCOC(=O)[C@]1(C(NC(=O)OC)c2ccccc2)CCCC1=O (stereo partly drawn),/,-1.1%[11.5 µM],/,/,16%[11.4 µM]
CCOc1ccccc1NC(=O)N1CCCC1C(=O)Nc1ccc(-n2cnnn2)c(C)c1 (stereo not drawn),i,-3.4%,i,1.1e-08,20µM*
Cc1cc(C)n(S(=O)(=O)c2ccc(C)c(C)c2C)n1,i,0.6%,i,2.7e-08,?
CC(C)C(=O)N1CCN(C2=NS(=O)(=O)c3ccccc32)CC1,i,-1.1%,i,1.5e-09,?
C[C@H]1COC(=O)[C@H]2CCCN2C(=O)[C@@H](C)COC(=O)[C@H]2CCCN2C1=O,/,1.1%[11.5 µM],/,/,-3%[11.4 µM]
COc1cccc2sc(Nc3nc(C)c(C(C)=O)s3)nc12,i,2.4%,i,2e-08,-16%
Cc1nc2ccccc2c2oc(C(=O)Nc3ccc4c(c3)OCCO4)cc12,/,-0.8%,/,/,0%
CC(=O)C1=C(O)C(=O)N(CCN(C)C)C1c1ccc(Cl)cc1 (stereo not drawn),i,-0.7%,i,3.7e-08,?
CC1CCCN(S(=O)(=O)c2ccc3c(c2)CCN3C(=O)C2CCC2)C1 (stereo not drawn),i,1.1%,i,2.2e-08,/
Cc1ccc(NS(=O)(=O)c2cc(C(=O)N3CCOCC3)ccc2C)cc1,i,-2.6%,i,2.5e-08,46%
COC(=O)NCC(c1cccnc1)N1CCN(c2ccccc2)CC1 (stereo not drawn),/,1.0%,/,/,-5%
COc1ccc(OC)c2sc(N3CCCCC3)nc12,i,-0.7%,i,5.1e-08,?
CCC(=O)Nc1nc2ccccc2n1CCN(C)C,i,/,i,6.5e-09,/
N#CCCn1nc(-c2ccccc2)cc1-n1c(C(F)(F)F)nc2ccccc21,i,0.9%,i,1.2e-09,?
O=C(CNS(=O)(=O)c1ccc(Br)s1)NCC1COc2ccccc2O1 (stereo not drawn),i,-0.2%,i,1e-09,-4%
COc1cccc(C2=NOC(C(=O)NC(C)C)C2)c1 (stereo not drawn),i,-1.3%,i,1e-09,19%
FC(F)(F)c1nc2nncn2c2c1CCCCC2,i,-1.7%,i,5.8e-08,-4%

# Reformatted with bars between the fields: part of the list above.
structure | Resorufin fluor | AID923 | A488 fluor | A647 fluor | TSHR ag
COc1cccc2sc(Nc3nc(C)c(C(C)=O)s3)nc12 | i | 2.4% | i | 2e-08 | -16%
C[C@H]1COC(=O)[C@H]2CCCN2C(=O)[C@@H](C)COC(=O)[C@H]2CCCN2C1=O | / | 1.1%[11.5 µM] | / | / | -3%[11.4 µM]

# Later entries:
SMILES,Resorufin fluor,AID923,A488 fluor,A647 fluor,TSHR ag
CC(=O)N(CN1C(=O)c2ccccc2C1=O)c1ccccc1,i,-0.6%,i,4.8e-08,5%
O=C(O)c1cscn1,i,1.6%,i,4.6e-08,-2%
CCCCc1nc2ccccc2c(NC(=O)CN2CCN(C)CC2)c1CCC,i,0.6%,i,2.6e-08,-2%
CCOC(=O)N1CCC(NC(=O)C(NC(=O)C2CCCCC2)C(C)C)CC1 (stereo not drawn),i,-0.5%,i,2e-08,0%
Cc1cc(C)c2nc3c(c([C@H](O)[C@@H]4CCCCN4)c2c1)CC/C3=C/c1ccc(Cl)cc1,i,-2.2%[11.5 µM],i,4.6e-08,3%[11.4 µM]
O=C(O)Cc1ccc(OCCNC[C@H](O)c2ccccc2)cc1,/,-1.3%,/,/,-3%
CC(C)NC(=O)c1ccccc1-c1nc(-c2ccccc2Cl)no1,i,-0.1%,i,4.3e-09,?
CCOC(=O)c1ccc(NC(=O)CSc2nc3c(c(=O)n2C)SC(C)C3)cc1 (stereo not drawn),/,-2.3%,/,/,?
CCCC(=O)Nc1nc2ccc3nc(C)sc3c2s1,i,0.1%,i,2.8e-09,3%
COc1ccc(OC)c(NC(=O)CNC(=O)Cn2cnc3ccccc3c2=O)c1,i,-0.8%,i,3.3e-08,-6%
COc1cccc(-c2nc(NC3CC3)c3ccccc3n2)c1,i,4.8%,i,4.6e-08,/
C=CCNC(=O)CCCC(=O)NCC=C,i,-0.3%,i,3.9e-09,-3%
COc1ccc(-c2nc(C#N)c(NCCCN3CCOCC3)o2)cc1,/,-1.7%,/,/,-7%
COCCn1c(-c2ccc(Cl)cc2)cnc1SCC(=O)NCc1cccs1,i,0.9%,i,4.4e-08,?
c1ccc(-c2nc(-n3ccnc3)nc(-n3ccnc3)n2)cc1,i,1.1%,i,3e-08,12%
CCOc1ccc(Nc2nc(Cc3nnc(SCC(=O)NCC4CCCO4)n3C)cs2)cc1 (stereo not drawn),i,-0.6%,i,6.7e-09,-4%
COc1cccc(-c2nn(C)c3sc(C(=O)N4CCN(c5ccccn5)CC4)cc23)c1,i,-3.3%,i,5.3e-09,?
CCN(CC)CCCC(C)n1c(-c2ccccc2)nc2c(N3CCOCC3)nc(C)nc21 (stereo not drawn),/,-0.1%,/,/,?
Cc1ccc(OC(=O)CCC(=O)Nc2ccc(S(=O)(=O)Nc3cc(C)on3)cc2)cc1,/,0.0%,/,/,?
O=C(CN1C(=O)CCC1=O)Nc1ccc2c3c(cccc13)CC2,i,-2.6%,i,2.5e-08,-1%
CCCCn1c(NC(=O)c2ccccc2)nc2ccccc21,/,0.6%,/,/,?
O=C1CSC(=S)N1Cc1cccnc1,/,0.7%,/,/,-4%
COC(=O)N1CCC[C@@]2(CCN(c3ncccn3)C2)C1,i,1.4%,i,1.3e-09,?
O=C(O)[C@@H]1Cc2c([nH]c3ccccc23)[C@@H](CCCCO)N1,i,0.9%[11.5 µM],i,5e-08,-2%[11.4 µM]
CCOc1ccc(NC(=O)CN2CCC(NC(=O)C3CCCCC3)CC2)cc1,i,-3.1%,i,3.6e-09,-9%
C1=CC2c3ccccc3NC(c3ccncc3)C2C1 (stereo not drawn),i,3.6%,i,1e-09,-6%
CO[C@H]1C[C@@H]2C[C@H](O)C[C@@H](CC(=O)O[C@@H](/C=C\CC(C)C)C[C@@H]3CC[C@H](C)[C@@H](C1)O3)O2,/,3.6%[11.5 µM],/,/,-7%[11.4 µM]
COc1cc2nc(SCC(=O)NCc3ccco3)n(Cc3ccc(Cl)cc3)c(=O)c2cc1OC,i,0.2%,i,8.1e-09,5%
COc1ccc(CNc2nc(-c3cccnc3)nc3ccccc23)c(OC)c1,i,1.8%,i,2.7e-09,?
CCc1ccccc1NC(=O)C1CCCN(S(=O)(=O)c2c(C)noc2C)C1 (stereo not drawn),i,-0.3%,i,1e-09,-1%
CC(C)OCCCNC(=O)C1CCC(=O)N1C(C)C (stereo not drawn),i,0.9%,i,2.3e-08,?
COC(=O)c1cccc(N2C(=O)c3ccccc3S2(=O)=O)c1,i,-0.2%,i,1.1e-08,3%
O=C(c1ccco1)N1CCN(C(=O)c2sccc2-c2ccccc2)CC1,i,-0.8%,i,8.3e-09,?
O=C(O)c1ccccc1NS(=O)(=O)c1ccc2c3c(cccc13)C(=O)N2,i,-0.9%,i,1.8e-08,7%
O=C(O)c1cc2nc(C3CC3)cc(C(F)(F)F)n2n1,/,-1.3%,/,/,5%
C1CCC(n2nnnc2CN2CCN(C3CCCC3)CC2)CC1,i,1.2%,i,1e-09,1%
Cc1ccc(-n2nnnc2SCC(=O)N2CCN(C(=O)c3ccco3)CC2)c(C)c1,i,0.2%,i,2.6e-09,2%
Cc1[nH]c2ccccc2c1NC(=O)CN1CCN(c2cccc(C(F)(F)F)c2)CC1,i,-0.1%,i,2.7e-09,-28%

# The list is partial; rates above refer to the full screens.
